# Bioassay records from PubChem BioAssay.
# CtBP-E1A blk: CtBP/E1A binding inhibition | AlphaScreen GST-E1A/His-CtBP binding, 1536-well; hits give low values; control for the full effect not named in the record | activity change, % (test concentration not listed) | 0.49% of 340,000 active | AID 651724; in the data active means activity change below about -65%; inconclusive means about -30% to -65%; inactive means above about -30%; further: on the % scale 0 is the no-effect control and ±100 the full control effect; compound concentration not given in the record
#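 AlphaScreen with 125 nM GST-E1A and 125 nM His-CtBP (5X stocks) in Tris pH 8.0, 300 mM NaCl, BSA, Tween 20, TCEP. Compounds preincubated 2 h at 37 deg C, then glutathione donor/nickel acceptor beads added for 1 h at 37 deg C in dark.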
# Six1-Eya2 blk: Six1/Eya2 interaction inhibition; AlphaScreen GST-Six1/His-Eya2 binding, biochemical; hits give low values; control for the full effect not named in the record; 0.56% of 360,000 active; activity change, % (concentration not given with the values); Q15475+O00167; in the data active = activity change below about -65%; inconclusive = about -30% to -65%; inactive = above about -30%; further: on the % scale 0 is the no-effect control and ±100 the full control effect
# Target sequence (O00167 whole entry, looked up): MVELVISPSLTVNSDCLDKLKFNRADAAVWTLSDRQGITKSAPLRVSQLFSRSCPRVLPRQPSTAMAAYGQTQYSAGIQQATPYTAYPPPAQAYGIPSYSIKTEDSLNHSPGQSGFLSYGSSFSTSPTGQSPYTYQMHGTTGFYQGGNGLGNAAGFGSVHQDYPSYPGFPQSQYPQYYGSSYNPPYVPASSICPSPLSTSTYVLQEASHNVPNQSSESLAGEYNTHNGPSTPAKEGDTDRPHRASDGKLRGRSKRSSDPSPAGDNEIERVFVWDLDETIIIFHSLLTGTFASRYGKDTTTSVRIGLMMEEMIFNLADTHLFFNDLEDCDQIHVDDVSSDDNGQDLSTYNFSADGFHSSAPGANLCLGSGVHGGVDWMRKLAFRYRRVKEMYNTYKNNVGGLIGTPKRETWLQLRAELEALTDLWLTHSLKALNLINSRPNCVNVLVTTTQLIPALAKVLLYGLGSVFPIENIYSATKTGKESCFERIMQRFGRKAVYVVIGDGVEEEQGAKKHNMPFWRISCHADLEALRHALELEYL
# Target sequence (Q15475 whole entry, looked up): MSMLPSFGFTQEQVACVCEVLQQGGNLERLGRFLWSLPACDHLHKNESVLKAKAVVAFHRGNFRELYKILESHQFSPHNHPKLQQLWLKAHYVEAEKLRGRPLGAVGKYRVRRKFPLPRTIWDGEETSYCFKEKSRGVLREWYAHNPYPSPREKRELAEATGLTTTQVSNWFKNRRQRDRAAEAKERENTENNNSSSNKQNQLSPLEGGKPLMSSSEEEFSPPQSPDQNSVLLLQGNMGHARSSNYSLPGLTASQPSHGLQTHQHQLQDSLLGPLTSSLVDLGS
#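 Compounds are tested against tagged Six1 and Eya2 proteins bridged by glutathione donor and nickel acceptor beads; after a one-hour incubation at 37 °C without light, AlphaScreen emission is recorded.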
# Sfp PPTase inh: blocks B. subtilis Sfp PPTase activity; Q9F4F7; Biochemical Sfp PPTase activity, qHTS; Potency, µM, for the others: max response, negative = inhibition, actives largely listed as inhibitors; 3.5% of 310,000 active; active means well fitted inhibition curve with a large enough effect; inconclusive means small, poorly fitted or top-dose-only effect, or another doubt; inactive means no such curve, though single readings can be large or run the other way;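 further: the enzyme is Sfp with the accession as filed and its product quenches rhodamine fluorescence; potency means the concentration at half of the fitted maximal effect; 0% = enzyme reaction without inhibitor and -100% = no enzyme wells; top concentration of the series not given in the record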
#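 Compounds were incubated with enzyme (final 15 nM) for 15 min at room temperature before substrate addition started the reaction. Fluorescence at 525 nm excitation, 598 nm emission was recorded immediately and after 30 minutes.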
# PINK1 expr mod: PINK1 expression modulation; 0.2% of 410,000 active; PINK1 immunofluorescence, high-content cytometry, 24 h; AID 624263; Potency, µM (highest dose often 76.6 µM), without a hit: at the highest dose activation (PINK1 increase), most hits filed as activators; active = well fitted activation curve with a large enough effect; inconclusive = small, poorly fitted or top-dose-only effect; inactive = flat fitted curve, though single readings scatter; cell line not stated here;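 further: potency means the concentration at half of the fitted maximal effect; % of control where 0% means no effect; nearly all actives have a fitted effect of over 65% in size; a mitochondrial uncoupler was the plate control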
#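 Measures PINK1 amount and localization on or inside mitochondria by immunofluorescence. Stable cells get compounds at 5 concentrations for 24 hours before fixation and staining; CCCP controls included.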
# TRPV1 potentiator: human TRPV1 potentiation; Q8NER1; TRPV1-expressing cells, Fluo-8 calcium influx, capsaicin EC20 potentiation; host cell line not named in the record; control for the full effect not named in the record; potentiation, % at 8.33 µM; 0.02% of 320,000 active; AID 540277; active means potentiation above 80%; inconclusive means 30% to 80%; inactive means below 30%; further: 0% is about no effect
#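 TRPV1-expressing cells were cultured overnight at 35.5C and loaded with Fluo-8 calcium dye for 40 to 90 min at room temperature. After a 10 s baseline, compound was added and calcium influx was read kinetically for 3 min (ex 480/em 520 nm).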
# D2 PAM: positive allosteric modulators of human D2 dopamine receptor; P14416; DiscoveRx D2 beta-arrestin cells, luminescence, 90 min; 100% = 57 uM dopamine signal; potentiation, % (no concentration beside the values); 0.23% of 360,000 active; AID 624464; active = potentiation of 50% or more; inconclusive = 30% to 50%; inactive = 30% or less;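 further: compound concentration not given in the record; tested on top of an EC20 dose of dopamine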
#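 D2 cells co-treated with compound plus 50 nM dopamine (EC20) for 90 min at 37 deg C to detect potentiation. Beta-arrestin recruitment was read as enzyme-fragment luminescence after 1 h at ambient temperature. Full response was set by 57 uM dopamine.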
# D2 ag: agonists of human D2 dopamine receptor (beta-arrestin); activation, % (concentration not given with the values); 0.084% of 360,000 active; DiscoveRx PathHunter D2 beta-arrestin, luminescence, 90 min; 100% = 57 uM dopamine signal; P14416; AID 624465; in the data active = activation above about 40%; inconclusive = about 15% to 40%; inactive = below about 15%; further: compound concentration not given in the record; the text of the record calls up to 30% inactive
#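 DiscoveRx PathHunter D2 beta-arrestin cells (2,100/well) attached overnight, then compound-stimulated 90 min at 37 C in HBSS/10 mM HEPES/0.1% Tween-20 buffer; beta-galactosidase complementation read by luminescence after 1 h at ambient temperature. Dopamine 57 uM final (EC100) as control.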
# * = called active by the depositor; ? = inconclusive; . = no result given; & = joins results of further samples; [ ] = another dose, or the depositor's remark.
SMILES,CtBP-E1A blk,Six1-Eya2 blk,Sfp PPTase inh,PINK1 expr mod,TRPV1 potentiator,D2 PAM,D2 ag
O=C(N/N=C/c1ccc(Cl)cc1)c1sccc1OCc1ccc(F)cc1,10,-2,-23%,0.5%,4,-20,-0.9
O=C(NCC1COc2ccccc2O1)c1cc(S(=O)(=O)N2CCOCC2)c(Cl)cc1Cl (centres undefined),-13,5,.,-3.3%,-38,3,-0.9
O=C(C(=O)N1CCN(C(=O)c2ccco2)CC1)c1c[nH]c2ccccc12,.,-3,12%,2.0%,-17,-5,-6.8
Cc1cccc(N2CCN(C(=O)c3cccc(N4C(=O)C5C6C=CC(C6)C5C4=O)c3)CC2)c1C (centres undefined),1,3,15%,0.5%,-11,1,-4.5
Cc1ccc(N/C=C/C(=O)c2ccco2)c(O)c1,4,-6,-11%,1.6%,28,-9,-3.7
CC1=C(C(=O)O)N2C(=O)C(NC(=O)c3ccc(F)cc3)C2SC1 (centres undefined),.,-4,.,2.2%,11,-3,-1.8
CCC(=O)N1CCN(c2ccc(NC(=O)c3ccc(C#N)cc3F)cc2Cl)CC1,4,0,12%,0.4%,0,-3,-0.6
CC(=O)Nc1cccc(/C(C)=N/NS(=O)(=O)c2ccccc2)c1,-17,-6,13%,-0.5%,-16,5,-0.3
N/C(=N\OC(=O)c1cccc2ccccc12)c1ccncc1,.,9,5%,-0.2%,-3,4,10.0
CC(O)(Cc1ccccn1)Cc1ccccn1,-2,4,.,1.8%,.,-4,1.3
COC(=O)c1[nH]c2ccccc2c1NC(=O)C(C)N1CCN(C(=O)c2ccco2)CC1 (centres undefined),8,-3,9%,-0.7%,1,-19,?
O=C(CN1C(=O)NC2(CCCCCC2)C1=O)c1ccc(OC(F)F)cc1OC(F)F,3,-3,.,-0.1%,4,-7,-5.2
CN=C1SC(CC(=O)Nc2c(C)cccc2C)C(=O)N1/N=C/c1cccs1 (centres undefined),7,9,-1%,?,-3,-21,3.0
O=C(CSc1ncn[nH]1)N1N=C(c2ccc(Cl)cc2)CC1c1ccco1 (centres undefined),-2,-14,?,6.4%,?,1,-4.4
CSc1nc(Oc2ccc(=O)[nH]n2)nc(N(C)C)n1,0,3,9%,-1.3%,-5,0,-0.5
CCOc1ccc(Cl)cc1-c1cc(C(=O)NC(C)C)[nH]n1,0,-4,.,0.0%,.,-9,1.0
CCCCN1C(=S)SC(C)(C)C1/[N+]([O-])=C/c1ccc(S(=O)(=O)NC)cc1 (centres undefined),5,17,-6%,-0.7%,4,-5,0.2
Cc1noc2ncc(C(=O)c3cc(F)ccc3O)cc12,7,-2,-24%,2.5%,-3,11,0.2
Cc1ccc(C)c(NC(=O)C2CCCN(S(=O)(=O)c3c(C)noc3/C=C/N(C)C)C2)c1 (centres undefined),-4,-6,17%,-0.2%&3.8%,-4,-25,-4.7
COc1ccc(-c2cc(-c3ccccc3)n[nH]2)c(O)c1,2,-6,-1%,0.4%,8,5,2.3
COc1ccccc1CNC(=O)C1CCCN(c2cnccn2)C1 (centres undefined),-12,1,9%,1.0%,-10,-6,-3.3
Fc1ccccc1Nc1ncnc2c1nnn2Cc1ccccc1,9,5,4%,-1.2%,10,3,3.9
Cc1cc(NC(=O)CNC(=O)C2CCCCC2)no1,5,2,-3%,-0.7%[38.3 µM],-2,9,-1.2
COc1ccc(S(=O)(=O)Cc2ccc(C(=O)NCc3ccco3)o2)cc1,0,-3,-3%,0.5%,-6,-3,3.9
O=C(Nc1cccc(OC(F)(F)F)c1)[C@@H]1O[C@H](CO)[C@H](O)[C@H](O)[C@H]1O,2,1,.,0.6%,.,-3,-3.1
Cc1c(NC(=O)C(C)OC(=O)c2ccc(Br)o2)c(=O)n(-c2ccccc2)n1C (centres undefined),0,8,12%,1.9%,3,-8,-2.0
COc1ccc(Cl)cc1NS(=O)(=O)c1cccc(C(=O)NC2CCN(Cc3ccccc3)CC2)c1,-28,-5,.,0.4%,.,-7,-3.3
OCCCCCNc1ncnc2ccccc12,2,4,19%,-2.5%,2,2,0.7
CC(=O)n1c2ccccc2c2c1c1ccccc1n2C,0,11,0%,3.7%,-2,1,-3.7
O=C(c1ccc2ccccc2c1)C1CCCN(C(=O)CN2C(=O)CSC2=O)C1 (centres undefined),0,-6,2%,3.4%,-3,-2,-1.3
CCC(c1nnc(SCC(=O)N2CC3(C)CC2CC(C)(C)C3)o1)N(C)C (centres undefined),1,15,-4%,-0.4%,-9,-17,0.8
COC(=O)c1sccc1NC(=O)c1c(-c2ccccc2)noc1C,10,10,-5%,4.0%,-17,7,3.5
CC(C)CNS(=O)(=O)c1ccc(Br)cc1N1CCC[C@@H]1CO,-1,3,.,0.0%,.,-9,-0.2
C=CCn1c(SCC(=O)Nc2cc(C)on2)nc2sc3c(c2c1=O)CCCC3,4,2,-3%,0.0%,18,-4,2.7
COc1ccc(CN2CCC(C(N)=O)CC2)cc1OCc1ccccc1,-1,4,-16%,-1.6%,-4,0,-4.2
Cc1ccc(Nc2nc(N)nc(CN3CCN(Cc4ccc5c(c4)OCO5)CC3)n2)cc1Cl,-20,-26,3%,-1.9%,-3,-33,-3.4
CCN(C(=O)CSc1nnc(COc2ccccc2F)n1N)c1c(N)n(Cc2ccccc2)c(=O)[nH]c1=O,.,2,.,0.1%,.,1,-2.7
COc1cc(C(=O)N2CCN(C(=O)CC(C)C)CC2)cc(OC)c1OC,-8,5,18%,1.4%[38.3 µM],4,1,0.6
O=C(NC1CCOc2ccccc21)c1ccccn1 (centres undefined),-4,-4,-8%,2.1%,2,0,-2.5
CCC1=NN(C(=O)c2cccnc2)C(O)(C(F)(F)F)C1 (centres undefined),-8,0,-19%,2.8%,-7,-10,-2.4
Cc1ccc(-n2c(N)c(-c3nc4ccccc4n3C)sc2=S)cc1,6,-5,-66%,?,-5,-9,-5.5
COc1ccc(C2C/C(=N\O)C(C)(C)O2)cc1 (centres undefined),-6,-1,-1%,-2.3%,-7,8,-4.8
COc1cccc(CN(C)C[C@@H]2OCc3ccccc3-c3c(n(C)c4ccccc34)C(=O)N([C@@H](C)CO)C[C@H]2C)c1,20,24,.,-1.8%,.,-5,0.5
CCOc1ccccc1NC(=O)N1CCC(NC(=O)C2CCCCC2)CC1,4,-2,14%,0.6%,7,-2,3.2
Cc1ccc(SCC(=O)NCCN2C(=O)CSC2=O)c(C)c1,0,1,10%,-0.2%,1,-4,-1.6
O=[N+]([O-])c1ccc(Cl)cc1C=NNc1ccccn1,6,-4,.,13%,.,-2,-1.5
Cn1c(SCC(=O)c2ccccc2)nnc1-c1cccc(N)c1,-1,-5,11%,-0.3%,2,29,-1.0
Cc1nc(SCC(O)CO)c([N+](=O)[O-])[nH]1 (centres undefined),7,0,-8%,-1.7%,2,-17,-2.6
C[C@H]1CN([C@@H](C)CO)C(=O)CCCn2nncc2CO[C@@H]1CN(C)S(=O)(=O)c1ccc2ccccc2c1,4,-4,.,-0.6%,.,-1,-2.2
CC(C)NC(=O)c1ccccc1NC(=O)CCS(=O)(=O)Cc1ccccc1,11,5,17%,.,4,-4,0.4
Cc1ccc(C2CC(=O)NC(SCC(N)=O)=C2C#N)s1 (centres undefined),-10,5,27%,-1.6%,0,-9,-3.1
Nc1nc(NC(=O)c2cccnc2)nn1-c1ccccc1,-1,-11,2%,0.3%,23,-6,-1.4
O=C(NCC(=O)N1CCN(S(=O)(=O)c2ccc3c(c2)OCCO3)CC1)c1ccccc1F,2,0,.,3.2%,.,-1,2.3
Cc1c(C(=O)OCC(=O)Nc2ccc(C(N)=O)cc2)cccc1[N+](=O)[O-],.,-4,16%,3.1%,1,-9,-1.7
CCOC(=O)c1ccc(NC(=O)CSc2nc3c(c(=O)n2CC)SC(C)C3)cc1 (centres undefined),-1,-8,2%,0.8%,10,0,4.2
COc1ccc(N(CC(=O)N/N=C/c2ccc(OC3CSC3)cc2)S(=O)(=O)c2ccccc2)cc1,-6,-11,13%,4.1%,-3,-6,-1.4
CCOc1cc(CN2CCOCC2)cc(C(C)=O)c1,-2,1,6%,3.3%,-2,11,-6.0
Cc1cc(-c2nnc(SCC(=O)Nc3c(C)cccc3C)n2N)n[nH]1,4,1,12%,-0.4%,-25,5,1.4
CC(C)(C)n1nc2c(c1NC(=O)c1ccc(Br)o1)CS(=O)C2 (centres undefined),1,0,18%,-2.2%,13,-9,-2.7
O=C(Nc1ncc(Cc2ccc(SC(F)F)cc2)s1)c1ccc(OC(F)F)cc1,10,13,-5%,-2.3%,-3,-4,-3.4

# Ordered by molar mass (ascending): part of the list above
SMILES,CtBP-E1A blk,Six1-Eya2 blk,Sfp PPTase inh,PINK1 expr mod,TRPV1 potentiator,D2 PAM,D2 ag
O=[N+]([O-])c1ccc(Cl)cc1C=NNc1ccccn1,6,-4,.,13%,.,-2,-1.5
Cc1cc(-c2nnc(SCC(=O)Nc3c(C)cccc3C)n2N)n[nH]1,4,1,12%,-0.4%,-25,5,1.4
O=C(Nc1ncc(Cc2ccc(SC(F)F)cc2)s1)c1ccc(OC(F)F)cc1,10,13,-5%,-2.3%,-3,-4,-3.4
O=C(NCC(=O)N1CCN(S(=O)(=O)c2ccc3c(c2)OCCO3)CC1)c1ccccc1F,2,0,.,3.2%,.,-1,2.3

# Next records follow.
SMILES,CtBP-E1A blk,Six1-Eya2 blk,Sfp PPTase inh,PINK1 expr mod,TRPV1 potentiator,D2 PAM,D2 ag
O=S(=O)(Nc1nnc(C2CC2)s1)c1ccccc1,.,-1,-20%,1.3%,-5,0,0.9
Cc1c(-c2cccc(Cl)c2)nc2ccccc2c1C(=O)OC/C(O)=C(\C#N)c1nc2ccccc2[nH]1,-15,1,21%,7.1%,-1,-7,-4.2
COc1ccc2[nH]c(=O)c(COC(=O)c3ccco3)cc2c1,10,-1,?,-0.5%,14,1,-0.3
Cc1[nH]nc(-c2ccc(O)c(C)c2O)c1Oc1ccccc1,-13,-1,?,-1.9%,15,4,0.5
COc1ccccc1OCCNC(=O)CCS(=O)(=O)c1ccccc1,-5,3,.,1.7%,.,-6,-1.3
C=CCOC(=O)Nc1c(C(=O)OC)[nH]c2ccc(Cl)cc12,-5,-4,-13%,4.9%,10,-26,-2.5
Cc1ccc(-c2cc(N)n[nH]2)cc1,-2,-5,10%,0.6%[38.3 µM],6,-7,-0.6
CN(CCO)S(=O)(=O)c1ccc2c(c1)C(=NO)c1cc(S(=O)(=O)N(C)CCO)ccc1-2,-12,-2,18%,2.6%,14,-5,-0.2
CC1(C)CC(=O)c2cc(OCC(=O)NCCCN3CCN(c4ccccc4F)CC3)ccc2O1,-2,-1,19%,0.4%[38.3 µM],2,4,?
